# Polio RdRp inh – poliovirus RNA polymerase inhibition; poliovirus polymerase elongation, fluorescence polarization; active compounds read low; % elongation, % (compound at 16.7 µg/mL); 150,000 compounds, 0.66% hits; in the data active means % elongation below about 90%; further: some results filed as inactive read as strong as hits
# Target sequence (P03300 1749-2209 limits assumed): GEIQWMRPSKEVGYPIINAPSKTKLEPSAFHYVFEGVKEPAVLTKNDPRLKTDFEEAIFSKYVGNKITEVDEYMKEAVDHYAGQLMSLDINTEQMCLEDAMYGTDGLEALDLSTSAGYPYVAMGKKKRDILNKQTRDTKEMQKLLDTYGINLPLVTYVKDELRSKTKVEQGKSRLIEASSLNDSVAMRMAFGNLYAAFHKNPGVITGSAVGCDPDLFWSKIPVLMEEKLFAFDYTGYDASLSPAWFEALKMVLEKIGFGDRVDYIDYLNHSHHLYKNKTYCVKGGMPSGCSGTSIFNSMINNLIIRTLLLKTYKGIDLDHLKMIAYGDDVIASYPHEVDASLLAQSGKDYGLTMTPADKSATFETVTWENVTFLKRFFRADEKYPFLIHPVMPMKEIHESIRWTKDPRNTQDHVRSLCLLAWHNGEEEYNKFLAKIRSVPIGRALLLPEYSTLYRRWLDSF
# Mtb MbtI inh – MbtI salicylate synthase inhibition | purified MbtI enzyme, fluorescence intensity read-out | inhibition, %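 (about 17 µg/mL by stock and volumes)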 | 100,000 compounds, 0.89% hits | AID 493033;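 active means above 50% in both replicates, above 80% if mildly self-fluorescent; inactive means the rest, strongly fluorescent compounds included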;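 further: 0% = mean of negative and 100% = mean of positive controls; one replicate is shown; some compounds called inactive have numbers as strong as hits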
# Target sequence (P9WFX0 whole entry, looked up): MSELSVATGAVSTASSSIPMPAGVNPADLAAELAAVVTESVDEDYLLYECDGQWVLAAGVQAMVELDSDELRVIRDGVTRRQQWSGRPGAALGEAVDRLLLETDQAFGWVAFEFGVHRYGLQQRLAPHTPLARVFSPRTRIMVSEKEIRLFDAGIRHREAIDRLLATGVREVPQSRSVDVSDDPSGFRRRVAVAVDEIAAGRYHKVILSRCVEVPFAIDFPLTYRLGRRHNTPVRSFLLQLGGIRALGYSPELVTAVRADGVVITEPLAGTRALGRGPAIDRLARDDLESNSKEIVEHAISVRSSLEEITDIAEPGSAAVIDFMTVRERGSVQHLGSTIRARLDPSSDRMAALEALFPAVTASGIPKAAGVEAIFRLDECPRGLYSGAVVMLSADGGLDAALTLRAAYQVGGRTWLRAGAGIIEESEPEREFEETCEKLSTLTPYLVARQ
# Mtb MenB inh – Mtb MenB enzyme inhibition. P9WNP5. MenB enzyme assay, absorbance read-out; some hits fall short of the stated cut. 100,000 compounds, 0.43% hits. AID 540299. inhibition, %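 (about 12 µg/mL by stock and volumes)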;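 active means mean of two replicates above 30%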;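 further: 0% = no compound and 100% = wells with inactive enzyme; the first replicate is given; strong numbers were not always called active; inactives centre near -10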
# Polio RdRp inh intensity – further read-out of Polio RdRp inh, marked with its call; % elongation; measured here: total intensity read-out; formula for this scale not given here;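 total fluorescence in place of polarization; lower means less elongation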
# * = called active by the depositor; . = no result given. Rows are unselected (roughly 2% active in at least one column).
SMILES,Polio RdRp inh,Polio RdRp inh intensity,Mtb MbtI inh,Mtb MenB inh
CCC(C(=O)OC)n1cnc2sc(C(=O)Nc3ccccc3)c(C)c2c1=O (stereo unspecified),111,115,.,-16
Cc1nc(CS(=O)(=O)c2ccccn2)sc1C(=O)NN,105,101,-11,-4
O=c1[nH]c2ccccc2nc1NCc1ccccc1,102,105,90,-40
CCOc1ccc2oc(=O)cc(CN(CCCN3CCOCC3)Cc3ccco3)c2c1,99,103,11,2
N=c1oc(=N)c2ccccc2o1,103,102,5,-54
CN1CCCC(OC(=O)c2ccccc2I)C1 (stereo unspecified),101,97,-1,.
O=C1CN(Cc2c(-c3ccccc3)[nH]c3ccccc23)CCN1,99,100,103,-7
Cc1cc(Nc2ccc(NNC(=O)c3ccc(F)cc3)nn2)n(-c2ccccc2)n1,98,102,0,0
C=C[C@@]1(C)CC(=O)[C@@]2(O)[C@](C)(O1)[C@@H](OC(C)=O)[C@@H](O)C1C(C)(C)CC[C@H](O)[C@@]12C (stereo partly specified),99,101,-9,-1
COc1ccc(CSc2nnc(SCc3cc(C)on3)s2)cc1,99,107,2,-17
O=C(O)c1cccnc1-c1nc2ccccc2s1,104,107,.,-2
Cc1cc(C(=O)COc2ccc3c(c2)CCC3)c(C)n1C,106,106,16,-16
Cc1cc(Cl)ccc1NC(=S)NCCCO,100,105,-11,0
COc1ccc(Oc2coc3cc(OCC(=O)O)ccc3c2=O)cc1,101,103,-2,-2
O=C(c1ccc(F)cc1Cl)N1CCCC1,103,108,-4,.
CC(C)N(C(=O)CSc1ncccc1C(=O)O)c1ccccc1,100,96,-4,4
CC(=O)OCC12C3C4C5C3C13CC53C2C4(F)F (stereo unspecified),107,108,-6,-13
Cc1ccc(S(=O)(=O)/N=C/c2ccccc2O)cc1,99,105,-10,1
C=CCn1c(=O)[nH]c2nc3cc(N=CN(C)C)c(C)cc3nc2c1=O,88,154,-4,-21
N#Cc1cc(C#N)c(SCC(=O)NCCN2C(=O)CSC2=O)nc1N,124,164,110,-9
CCN(CC)S(=O)(=O)c1ccc(NC(=O)COc2ccc(Cl)cc2Cl)cc1,107,113,.,-51
COc1ccccc1NC(=O)/N=C1\NC(=O)C(C(C)C)O1 (stereo unspecified),98,106,8,-12
Cc1ccc(OCc2ccc(C(=O)NC(c3ccccc3)c3ccccc3)o2)cc1C,99,95,-213,-14
Cc1cc(-c2onc(C)c2C(N)=S)no1,103,102,10,7
Cc1ccccc1Nc1nc(N)nc(Cn2ccsc2=N)n1,96,100,14,6
CCc1ccccc1N1CC(c2nc3ccccc3[nH]2)CC1=O (stereo unspecified),104,108,-14,-14
CCOC(=O)c1sc(=Nc2ccccc2)n(-c2ccccc2)c1C,102,100,3,-17
C=Cn1ccnc1P(O)(=S)c1nc(C)c(CCOC(C)=O)s1 (stereo unspecified),97,104,7,-38
CCc1ccc(-c2nc(=S)n(CN3CCN(S(=O)(=O)c4cccs4)CC3)[nH]2)cc1,104,105,52,-23
CN(C)C=Nc1ccc(OC(F)F)c(Cl)c1,101,108,-2,1
Cc1ccsc1CCNC(=O)CCc1nnc2n(CCc3ccccc3)c(=O)c3ccccc3n12,101,101,-10,-17
COc1ccc(Cc2c(O)[nH]c(=S)[nH]c2=O)cc1,101,102,22,-14
COC(=O)c1cc2c(s1)CN(Cc1ccc(Cl)cc1)C2,103,105,-83,-24
COC(CNC(=O)c1ccc(/C=C2\Sc3ccccc3N(Cc3ccc(F)cc3)C2=O)cc1)OC,102,104,-2,-32
N=C1/C(=C/c2ccc(OCc3ccc4c(c3)OCO4)cc2)C(=O)N=C2SC=CN12,103,109,0,-9
O=C(N/N=C1\CCc2ccccc21)c1ccc(F)cc1,106,106,8,-26
CCN1CCc2nc3ccccc3c(C(=O)Nc3ccc(NC(C)=O)cc3)c2C1,106,97,-8,-34
Cc1ccc(S(=O)(=O)N2CCN(C(=O)[C@@H]3CCCN3C(=O)OC(C)(C)C)CC2)cc1,101,95,-8,-7
CCC(CC)c1nnc(NC(=O)c2ccc(CSc3ncn[nH]3)cc2)s1,101,112,-5,1
O=C(N=Nc1c2ccccc2c2nc3no[nH]c3nc12)c1ccccc1O,102,100,-6,-24
N=C1SCC(=O)N1c1ccc(Cl)cc1,104,102,26,-27
S=c1[nH]c2ccccc2n1Cc1ccccc1,96,95,84*,-19
COc1ccc(CN2CCN(C(=O)C3CCC(CNS(=O)(=O)c4ccc(C)cc4)CC3)CC2)c(OC)c1OC (stereo unspecified),99,100,5,-25
Cc1cc(C(=O)COC(=O)C2=NNC(=O)CC2)c(C)n1-c1ccccc1,101,106,-12,-13
Cc1ccc(SCc2cc(=O)[nH]c(SCC(=O)n3c4ccccc4c4ccccc43)n2)cc1,103,103,1,-10
C[C@@H]1CC2C3CCC4=CC(=O)C=C[C@]4(C)[C@@]3(F)[C@@H](O)C[C@]2(C)[C@@]1(O)C(=O)CO (stereo partly specified),100,100,-5,7
CC1CN(C(=O)CCn2c(=O)oc3ccccc32)CC(C)O1 (stereo unspecified),102,99,1,0
CCCNC(=O)CN1C(=O)N(c2ccc(CC)cc2)S(=O)(=O)c2ccccc21,.,.,-2,-17

# Continued (2 carried over from the part before).
SMILES,Polio RdRp inh,Polio RdRp inh intensity,Mtb MbtI inh,Mtb MenB inh
CC1CN(C(=O)CCn2c(=O)oc3ccccc32)CC(C)O1 (stereo unspecified),102,99,1,0
CCCNC(=O)CN1C(=O)N(c2ccc(CC)cc2)S(=O)(=O)c2ccccc21,.,.,-2,-17
CCCNC(=O)c1cnn(-c2ccccc2)c1-n1cccc1,100,94,-9,0
O=C(Cn1c(-c2cccs2)cc2ccccc21)N1CCCCC1,102,99,104,10
CN(C)CCNC(=O)c1cc2c(s1)-c1ccccc1OC2,100,101,117,6
CN(CCOC(=O)C1c2ccccc2Oc2ccccc21)Cc1ccccc1,103,101,0,-11
CCN(CC)S(=O)(=O)c1ccc(N=c2ccccn2C)cc1,106,100,-12,-23
C/C(=N\N)c1ccc(Cl)c(Cl)c1Cl,104,109,0,-2
O=C(O)c1ccc2c(c1)OCCOCCOCCO2,101,97,.,-18
O=c1c2c(nc3n1CCCS3)-c1ccccc1CC21CCCC1,102,102,21,2
C[C@H](NC(=O)C12CC3CC(CC(C3)C1)C2)C(=O)O,104,95,-2,5
O=C(CNC(=O)Cc1ccccc1)NCc1ccco1,101,102,-6,-9
Cc1nc2ccccc2nc1CSCc1ccco1,102,101,8,-5
CC(C)n1nc(C(=O)O)c2ccccc2c1=O,101,102,2,-10
CCC(=O)Nc1ccc(N2CCOCC2)cc1,101,99,-5,-24
CC(C)(C)C(=O)c1cn(CC(=O)O)c2ccccc12,100,95,3,-21
FC(F)(F)c1cc(NC(=S)NC2CCCCC2)cc(C(F)(F)F)c1,105,99,-6,-17
CCOc1ccc(NC(=O)c2ccc(Br)o2)cc1,101,101,6,9
CN(C(=O)COC(=O)C1CC2C=CC1C2)C1CCCCC1 (stereo unspecified),104,108,-6,.
CCOC(=O)CNc1nc2ccc(C)cc2n2cnnc12,103,106,2,-16
COc1ccc(-c2nc(CNS(=O)(=O)c3ccc(NC(C)=O)cc3)cs2)cc1,106,104,-9,-3
CSc1nnc2c(n1)OC=Nc1ccc(Cl)cc1-2,101,103,11,-27
O=C(CCSc1nnc(-c2ccco2)o1)N1CCOCC1,101,104,10,19
S=C(c1cccnc1)N1CCOCC1,99,100,9,-24
CNC(=O)NC(=O)Cn1cnc2sc(-c3ccccc3)cc2c1=O,103,105,-2,13
Cc1nonc1OCCN1CCN(c2cnn(-c3ccccc3)c(=O)c2Cl)CC1,101,103,0,16
CN(C)NC(=S)Nc1cccc(C(F)(F)F)c1,102,106,-12,11
C=CC(=O)N1CC2CC(C1)c1cccc(=O)n1C2 (stereo unspecified),99,104,2,2
CC(C)OC(=O)n1c(=S)oc2ccccc21,99,109,22,3
Cc1cc(-c2cn3cc(Br)ccc3n2)c(C)n1Cc1ccco1,107,110,4,-21
CSCC[C@@H](C(=O)O)N1Cc2ccccc2C1=O,100,103,18,16
O=C1S/C(=C/c2ccccc2)C(=O)N1CC(O)Cn1c2ccccc2c2ccccc21 (stereo unspecified),104,113,.,0
CCN1CCCC1CNc1ccc(S(=O)(=O)N2CCCC2)cn1 (stereo unspecified),95,105,17,-14
O=C(Nc1cccc(F)c1)c1ccc2ncsc2c1,97,97,-2,-3
N#CC(C#N)=Cc1cccn1-c1ccc(S(N)(=O)=O)cc1,101,99,8,-232
COc1ccc(-c2[nH]nc(-c3ccccc3)c2-c2ncc[nH]2)cc1,.,.,-17,16
O=C(CCc1ccccc1)NCCc1nc2ccccc2[nH]1,104,111,.,-4
CC1=CC(C)C(/C=N/O)C(C)C1 (stereo unspecified),101,101,-15,6
O=C(CN1C(=O)c2ccccc2S1(=O)=O)NC1CC1,103,105,-5,.
C=C(C)Cn1c(N)cc(=O)nc1SCC(=O)Nc1cccc(C(F)(F)F)c1,103,105,1,-6
CC(C)(C)C(=O)OCc1nc(-c2ccc(Cl)cc2)cs1,107,108,-9,9
O=C(c1ccccc1)c1nc2ccccc2[nH]c1=O,100,104,.,-33
COc1cc2ccc(=O)oc2c(OC2OC(CO)C(O)C(O)C2O)c1O (stereo unspecified),103,107,.,-36
c1cncc(-c2nc(-c3cccs3)cs2)c1,102,106,-20,.
NC(=S)CC(=S)N1CCOCC1,100,101,10,-29
COc1ccc(C/C(=N/N=C(N)N)c2ccc(OC)cc2)cc1,103,99,-10,-28
COc1ccc(-c2csc(NC(C)=O)c2C(=O)O)cc1,100,102,5,17
O=C(NCCc1ccccc1)c1cc2n(n1)C(C(F)(F)F)CC(c1ccc(Br)cc1)N2 (stereo unspecified),102,98,-9,-6
O=C(NCc1ccco1)C1Sc2nnc(-c3ccccc3)n2NC1c1ccccc1 (stereo unspecified),101,102,1,-4
CCOc1ccc(/C(O)=C/C(=O)C(=O)Nc2ccc(S(=O)(=O)NC(C)=O)cc2)cc1,102,108,-10,-12

# One compound at a time, as listed above:
# CC(C)(C)C(=O)OCc1nc(-c2ccc(Cl)cc2)cs1 reads Polio RdRp inh: 107; Polio RdRp inh intensity: 108; Mtb MbtI inh: -9; Mtb MenB inh: 9
# COc1ccc(-c2csc(NC(C)=O)c2C(=O)O)cc1 reads Polio RdRp inh: 100; Polio RdRp inh intensity: 102; Mtb MbtI inh: 5; Mtb MenB inh: 17

# Next section
SMILES,Polio RdRp inh,Polio RdRp inh intensity,Mtb MbtI inh,Mtb MenB inh
O=C1OCN2c3ccccc3C34OC12c1ccccc1N3COC4=O,100,99,23,2
COc1ccc(N=C2NC(=O)/C(=C\c3ccc(Sc4nc5ccccc5[nH]4)o3)S2)cc1,107,115,6,-66
COc1ccc(N2CCN(C(C)C(=O)N(C)c3ccccc3)CC2)cc1 (stereo unspecified),107,112,-11,-22
COc1ccc(CN=Cc2ccc(C(F)(F)F)cc2)cc1,101,103,-6,-2
O=C(O)C(Cc1ccccc1)N1C(=O)/C(=C/C=C/c2ccco2)SC1=S (stereo unspecified),102,110,25,-58
Cc1oc2c(c1C(=O)NC1CCCCC1)C(=O)c1ccccc1C2=O,98,107,8,8
CC(C)C(CC(=O)O)c1c[nH]c2ccccc12 (stereo unspecified),101,103,25,-30
Cc1nn(-c2ccccc2)c2ncc(C(=O)c3ccccc3O)cc12,108,109,-16,-10
COc1cc(OC)c(/C=C2\C(=O)NC(=O)N(C3CCCCC3)C2=O)c(OC)c1,108,109,.,-59
Cc1ccc(-c2cc(-c3ccccc3)c(C#N)c(SCS(=O)Cc3ccccc3)n2)cc1 (stereo unspecified),103,106,23,-20
Nc1n[nH]c(CCCO)n1,101,97,3,-5
COC(=O)CN1C(=S)N(Cc2ccccc2)C(=O)C1CC(=O)Nc1ccc(OC)cc1 (stereo unspecified),102,108,-13,-8

# Grouped by structure: the compounds so far containing a CF3 group.
SMILES,Polio RdRp inh,Polio RdRp inh intensity,Mtb MbtI inh,Mtb MenB inh
FC(F)(F)c1cc(NC(=S)NC2CCCCC2)cc(C(F)(F)F)c1,105,99,-6,-17
CN(C)NC(=S)Nc1cccc(C(F)(F)F)c1,102,106,-12,11
C=C(C)Cn1c(N)cc(=O)nc1SCC(=O)Nc1cccc(C(F)(F)F)c1,103,105,1,-6
O=C(NCCc1ccccc1)c1cc2n(n1)C(C(F)(F)F)CC(c1ccc(Br)cc1)N2 (stereo unspecified),102,98,-9,-6
COc1ccc(CN=Cc2ccc(C(F)(F)F)cc2)cc1,101,103,-6,-2

# New compounds follow.
SMILES,Polio RdRp inh,Polio RdRp inh intensity,Mtb MbtI inh,Mtb MenB inh
CN(C)CCNC(=O)Cn1nc(C(F)F)cc1C1CC1,99,99,8,-10
O=C(c1ccccc1Cl)N(Cc1ccccc1)c1ccccn1,105,105,-12,.
CC(=O)N1CCN(C(=S)Nc2ccc(F)cc2)CC1,103,96,-9,-13
N#C/C(=C(/O)CSc1ccccn1)c1nc2ccccc2s1,103,112,-5,-1
CCCCC(=O)N1c2ccccc2NC2=C(C(=O)CCC2)C1c1ccccc1 (stereo unspecified),102,106,4,-5
OCCNC(=S)NC1CCCC1,108,107,1,-8
CC(C)Cn1c(-c2ccncc2)n[nH]c1=S,105,107,23,-22
Cc1nc(N)sc1N=Nc1ccc(S(=O)(=O)N2CCOCC2)cc1,103,100,16,-164
N#CCc1ccc(NC(=O)Cc2ccccc2)cc1,100,99,-22,-3
O=C(O)c1ccc(NNC(=S)NCCN2CCOCC2)cc1,106,107,29,-10
Cc1nc(-n2cc(F)c(=O)[nH]c2=O)c2nc(C)oc2n1,102,100,.,-4

# Compound activity: PubChem, ICCB-Longwood Screening Facility, Harvard Medical School
